CBX7 inh – CBX7 chromodomain binding inhibitors, primary screen, biochemical, AlphaScreen | Chromobox protein homolog 7 (Homo sapiens), O95931 | AlphaScreen His6-CBX7 / biotin-H3K27me3 peptide binding; hits give low values | normalised signal (fraction of DMSO) (test concentration not listed) | 66,000 compounds, 1.1% hits; in the data active = normalised signal below about 0.5;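 note: 100 nL library stock added to about 20 µL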
Target sequence (O95931 whole entry, looked up): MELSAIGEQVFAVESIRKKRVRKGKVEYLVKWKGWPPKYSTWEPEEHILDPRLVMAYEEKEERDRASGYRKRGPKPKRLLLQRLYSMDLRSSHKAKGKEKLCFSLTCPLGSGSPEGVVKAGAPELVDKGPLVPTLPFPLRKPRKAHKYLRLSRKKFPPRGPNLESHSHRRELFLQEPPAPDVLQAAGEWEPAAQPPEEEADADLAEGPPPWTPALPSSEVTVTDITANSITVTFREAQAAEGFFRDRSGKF
CBX7 inh z-score – also measured in CBX7 inh; calls as there; z-score; measured here: z-score of CBX7 signal; some inactives read as strong as hits; reference of the scale not given here;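 same signal on another scale; lower means less binding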
Numbers without * were called inactive.

SMILES	CBX7 inh	CBX7 inh z-score
Cc1ccc(C)c(-n2c(Cc3cc(=O)[nH]c(=O)[nH]3)nnc2SCC(=O)Nc2ccccc2C)c1	1.2	0.38
COc1ccc(OC)c(NS(=O)(=O)c2cccc3cccnc23)c1	0.97	-0.69
Cc1noc(/C=C/c2cccs2)c1S(=O)(=O)N1CCC(C(=O)N2CCCC2)CC1	1.1	2.5
CCN(CC)CCNC(=O)c1cc(Nc2ccc(C)cc2C)nc2ccccc12	1.1	1.5
c1csc(-c2nnc(N3CCCCCC3)c3ccccc23)c1	0.93	-2
O=C(c1cnn2c(C(F)F)cc(-c3ccccc3)nc12)N1CCCCC1c1cccnc1 (stereo not drawn)	1	0.43
O=C(Nc1nonc1-c1nc2ccccc2n1Cc1c(F)cccc1Cl)c1ccccc1Cl	1.1	0.25
Fc1ccc(-c2nc3ccc(F)cc3nc2-c2ccc(F)cc2)cc1	1.4	2.6
Cc1ccnc(N2C(=O)c3ccccc3C2Nc2ccccc2F)c1 (stereo not drawn)	1	0.81
Cc1ccc2[nH]c3c(c2c1)CCCC3NCc1ccc(Cl)cc1 (stereo not drawn)	0.49*	-3.2*
CCCNC(=O)c1c[nH]c2ccc(S(=O)(=O)N(C)c3ccc(Br)cc3)cc2c1=O	1	0.19
COc1ccccc1-c1c(C)nn2c(NC3CC3)cc(C)nc12	1	0.61
CCc1ccc(-c2cc(C(=O)Nc3ccc(C(=O)OC)cc3)c3ccccc3n2)cc1	0.85	-1.1
COc1ccc(Nc2cc(C(=O)N3CCN(c4ccccc4)CC3)c3ccccc3n2)cc1	0.62	-7.5
CCOC(=O)c1c(C)n(-c2ccccc2)c2cc(Br)c(O)cc12	1	0.74
O=C(NCCc1c[nH]c2ccccc12)c1ccc2c(c1)NC(=O)C1CCCN21 (stereo not drawn)	0.77	-1
Cc1ccc(N2C(=O)c3ccccc3C2Nc2ccccc2Cl)nc1 (stereo not drawn)	1	1
Cc1ccc(C)c(N2CCN(CCCNC(=O)c3csc4c3CCCCC4)CC2)c1	1	0.29
O=C(NCc1ccccc1Cl)c1cc(-c2cccnc2)nc2ccccc12	1.2	1.8
CC(C)c1ccc(NC(=O)C(c2ccc3c(c2)OCO3)N(C)Cc2ccccc2)cc1 (stereo not drawn)	1	0.28
CCCSCCCNC(=O)c1nc(-c2ccc(C)cc2)oc1C	1	0.92
O=C(Cc1c(C(=O)O)[nH]c2ccc(Cl)cc12)Nc1ccc(F)c(Cl)c1	0.94	-0.46
COc1ccc(CCN(C)C2CC(=O)N(c3ccccc3)C2=O)cc1OC (stereo not drawn)	1.1	1.9
CCCCSCCCNC(=O)c1cc(Nc2ccccc2C)nc2ccccc12	1.1	0.69

A draw from above in order of SMILES length, descending.
SMILES	CBX7 inh	CBX7 inh z-score
Cc1ccc(C)c(-n2c(Cc3cc(=O)[nH]c(=O)[nH]3)nnc2SCC(=O)Nc2ccccc2C)c1	1.2	0.38
CCCNC(=O)c1c[nH]c2ccc(S(=O)(=O)N(C)c3ccc(Br)cc3)cc2c1=O	1	0.19
Cc1noc(/C=C/c2cccs2)c1S(=O)(=O)N1CCC(C(=O)N2CCCC2)CC1	1.1	2.5
CCc1ccc(-c2cc(C(=O)Nc3ccc(C(=O)OC)cc3)c3ccccc3n2)cc1	0.85	-1.1
O=C(Nc1nonc1-c1nc2ccccc2n1Cc1c(F)cccc1Cl)c1ccccc1Cl	1.1	0.25
O=C(Cc1c(C(=O)O)[nH]c2ccc(Cl)cc12)Nc1ccc(F)c(Cl)c1	0.94	-0.46
O=C(NCCc1c[nH]c2ccccc12)c1ccc2c(c1)NC(=O)C1CCCN21 (stereo not drawn)	0.77	-1
Cc1ccc(C)c(N2CCN(CCCNC(=O)c3csc4c3CCCCC4)CC2)c1	1	0.29
CCN(CC)CCNC(=O)c1cc(Nc2ccc(C)cc2C)nc2ccccc12	1.1	1.5
COc1ccc(CCN(C)C2CC(=O)N(c3ccccc3)C2=O)cc1OC (stereo not drawn)	1.1	1.9
O=C(NCc1ccccc1Cl)c1cc(-c2cccnc2)nc2ccccc12	1.2	1.8
Fc1ccc(-c2nc3ccc(F)cc3nc2-c2ccc(F)cc2)cc1	1.4	2.6
Cc1ccnc(N2C(=O)c3ccccc3C2Nc2ccccc2F)c1 (stereo not drawn)	1	0.81
CCCSCCCNC(=O)c1nc(-c2ccc(C)cc2)oc1C	1	0.92

(further entries)
SMILES	CBX7 inh	CBX7 inh z-score
O=C(Nc1ccc(F)cc1)C1CCCN(S(=O)(=O)c2cccs2)C1 (stereo not drawn)	0.66	-6
CCc1c(-c2ccccc2)nc2ccccc2c1C(=O)NCC1CCCO1 (stereo not drawn)	0.79	-2.8
COc1cccc(-c2cc(C(=O)Nc3cc(C)n(Cc4ccc(Cl)cc4)n3)no2)c1	0.94	-1.2
Cc1cc(N2CCN(C)CC2)nc2ccc(NC(=O)c3cccnc3)cc12	0.97	-0.38
Cc1ccc(C(=O)c2oc3ccccc3c2NC(=O)c2cccc(C)c2)cc1	1.7	3
CCOC(=O)N1CCN(c2c(N(CC)CCN(C)C)c(=O)c2=O)CC1	0.99	-0.14
CCC(=O)Nc1nc(C)c(-c2csc(Nc3ccccc3OC)n2)s1	0.83	-0.2
CCC1CCCCN1CCCNC(=O)c1cnc(Nc2ccccc2OC)c2ccccc12 (stereo not drawn)	1.2	1.6
Cc1ccc2c(c1)-c1c(cnn1CC(=O)NCCCN1CC(C)CC(C)C1)CO2 (stereo not drawn)	1	0.89
CN(C(=O)c1ccc2c(c1)N(Cc1ccccc1)C(=O)c1ccccc1S2(=O)=O)C1CCCCC1	0.99	-0.1
CCS(=O)(=O)N1CCCC(C(=O)NCc2ccc(C)cc2)C1 (stereo not drawn)	0.99	-0.13
Cc1ccc2[nH]c3c(c2c1)CN(C)CC3	0.89	-2.2

Retrieved one by one from the list above:
SMILES	CBX7 inh	CBX7 inh z-score
COc1cccc(-c2cc(C(=O)Nc3cc(C)n(Cc4ccc(Cl)cc4)n3)no2)c1	0.94	-1.2
CN(C(=O)c1ccc2c(c1)N(Cc1ccccc1)C(=O)c1ccccc1S2(=O)=O)C1CCCCC1	0.99	-0.1

Later entries
SMILES	CBX7 inh	CBX7 inh z-score
Cc1ccc(Cc2cncc(O)c2)cc1	1.1	2
COc1ccc(Cc2nc(-c3ccc(NC(=O)c4cccs4)cc3)no2)cc1	1	0.11
CCOC(=O)N1CCN(c2c(NCCN3CCCCCC3)c(=O)c2=O)CC1	0.97	-0.56
COc1cccc(-c2cc(C(=O)Nc3sc4c(c3C(N)=O)CCCC4)no2)c1	1	0.26
CCOC(=O)c1c(CN(C)C)n(-c2ccccc2)c2cc(Br)c(OC)cc12	0.51	-3.5
CCOc1ccc(-n2nc(C(=O)Nc3ccc(Oc4ccccc4)cc3)c3ccccc3c2=O)cc1	0.94	-1.7
Cc1c(C(=O)NCc2ccc(F)cc2)sc2ncn(CC(=O)N3CCOCC3)c(=O)c12	1	0.21
CC(C)Cc1nnc(NC(=O)CSc2n[nH]c(-c3ccccc3)n2)s1	1.1	1.4
Cc1cc2cc(CCNC(=O)C(C)Oc3ccccc3)c(=O)[nH]c2cc1C (stereo not drawn)	1	0.26
COc1ccccc1Nc1ncc(C(=O)NCCN2CCOCC2)c2ccccc12	1.1	2.4
COc1ccc(NC(=O)CSc2nccn2-c2ccc(OC)cc2)cc1	0.86	-0.18
Cc1ccc(NC(=O)CSc2nnc(-c3cccnc3)n2Cc2ccccc2)c(C)c1	1	0.38
COc1ccc(-n2nc(C(=O)N3CCN(c4ccccc4)CC3)c3ccccc3c2=O)c(OC)c1	0.93	-2.1
CC1CCN(CCCNC(=O)CCN2C(=O)COc3ccccc32)CC1	1.1	2.8
O=C(NC1CC1)C1CCN(C(=O)c2sccc2-n2cccc2)CC1	1.1	2.6
Cc1cccc(CN2C(=O)CSc3ccc(C(=O)NCc4ccccc4Cl)cc32)c1	1	0.18
O=C(CSc1nccn1-c1cccc(Cl)c1)Nc1cccc(C(F)(F)F)c1	0.81	-3.4
Cc1nc(-c2ccccc2)nc2[nH]c(-c3ccccc3)cc(=O)c12	1	0.74
Cc1ccc(-c2nnc(Nc3ccc(O)cc3)c3ccccc23)cc1S(=O)(=O)NC(C)(C)C	0.67	-6.1
O=c1oc2ccccc2cc1-c1csc(Nc2cccc3ccccc23)n1	1.1	2
Cc1nc2cc(C(=O)NCc3ccc4c(c3)OCO4)ccc2n1-c1cccc(F)c1	1.1	2.3
COc1cccc(CNC(=O)Cn2nc(-c3ccccc3)ccc2=O)c1	0.99	-0.37
CCS(=O)(=O)N1CCC(C(=O)NCCc2ccccc2)CC1	1	0.33
Cc1ccc(NC(=O)Cn2cc(S(=O)(=O)c3ccc(C)cc3)c(=O)c3cc(F)ccc32)cc1	0.84	-2.4
COc1ccccc1-c1cc(=O)n(CC(=O)N2CCC(C(N)=O)CC2)c2c1CCCC2	0.94	-1.5
Cc1cc2nc(-c3ccc(NC(=O)c4ccccc4F)cc3)oc2cc1C	1	1.2
CC1CCN(c2nc3ccc(C(=O)N4CCC(C(N)=O)CC4)cc3s2)CC1	1.2	2
Cc1cc(C(=O)NCCN2CCCC2)n(-c2ccccc2)n1	1	0.01
O=C1CC(C(=O)NC2CCCC2)(c2ccc(Cl)cc2)N1Cc1ccc2c(c1)OCO2 (stereo not drawn)	0.9	-2.2
Cc1ccc(-c2ccc(=O)n(CC(=O)N3CCN(C)CC3)n2)cc1	1	0.16
CCCCNC(=O)c1sc2nc(-c3ccc(OC)cc3)cn2c1C	1	0.92
CCOC(=O)C1CCCN(C(=O)c2sc3ncnc(N4CCN(c5ccccc5)CC4)c3c2C)C1 (stereo not drawn)	0.89	-1.5
Nc1ccccc1-c1nc2cc(F)ccc2[nH]c1=O	1	0.024
Cc1cccc(-c2cc(C(=O)Nc3cc(C)cc(C)n3)c3ccccc3n2)c1	1.2	0.66
Clc1ccccc1-c1nc(NCc2ccccc2)nc2ccc(Br)cc12	1.5	8.5
Cc1ccc(CN2CCN(CC(=O)N3CCCC3)C2=O)cc1	1	0.45
CCc1nnc(NC(=O)Cn2ncc3c2-c2ccccc2OC3)s1	1	-0.027
Cc1ccc(NC(=O)C2CCC(CNS(=O)(=O)c3cccc4cccnc34)CC2)cc1Cl (stereo not drawn)	1.1	2.7
O=C(Nc1ccc2c(c1)OCCO2)C1CCN(C(=O)c2cnn(-c3ccccc3)c2-n2cccc2)CC1	1.1	0.93
COc1cc2c(cc1OC)C(C(=O)NCCCOC(C)C)C1c3ccccc3CCN1C2=O (stereo not drawn)	1	0.25
O=c1c2ccccc2nc(/C=C/c2ccccc2)n1CCCO	0.92	-0.081
CCC(c1ccccc1)c1nnc(NC(=O)c2cccc(Br)c2)s1 (stereo not drawn)	1	0.067
Cc1cccc(NC(=O)CC2Sc3ccccc3NC2=O)c1 (stereo not drawn)	1	1.1
Cc1ccc(-n2ncc(C(=O)Nc3cccc(Cl)c3C)c2C2CCNCC2)cc1C	0.87	-2.4
CCOC(=O)c1ccc(NC(=O)c2cccc3c2C(=O)N(C2CCCCC2)C3)cc1	1	1.1
CC(C)C(=O)N1CCN(c2nc(-c3ccccc3)c3c(c2C#N)CCCC3)CC1	0.91	-0.1
COCCNC(=O)CCc1c(C)nc2c(c(C)nn2-c2ccc(C)cc2)c1C	1.2	1.3
Cc1cccc(CN2C(=O)CSc3ccc(C(=O)NC4CC4)cc32)c1	0.99	-0.44
Cc1ccc2[nH]c3c(c2c1)CCCC3NCc1ccccc1 (stereo not drawn)	0.76	-4.6
COc1ccc(Cl)cc1Nc1cc(C)nc2nc(C)nn12	1	-0.084
CCN(CC)C(=O)Cn1cnc2sc(C(=O)N(C)Cc3ccccc3)c(C)c2c1=O	0.99	-0.28
O=C(NCc1ccccc1)c1cnc2sccn2c1=O	0.89	-2.2
CC(=O)Nc1ccccc1-c1nc2ccc(C(=O)N3CCN(Cc4ccccc4)CC3)cc2[nH]c1=O	1.2	4.5
Cc1ccc(N2CCN(C(=O)C3CCCN3S(=O)(=O)c3ccc4c(c3)CCC(=O)N4)CC2C)cc1 (stereo not drawn)	0.87	-1.8
Cc1ccc(S(=O)(=O)c2nc(-c3ccc(Cl)cc3Cl)oc2N(C)C)cc1	1.1	1.2
CCN(CC)S(=O)(=O)c1ccc2c(c1)N(CC(=O)Nc1cc(C)ccc1C)C(=O)CS2	1	1.1
Cc1cc(OCC(=O)Nc2ccc(-c3nc4ncccc4o3)cc2)cc(C)c1Cl	0.87	-4.6
Cc1ccc2oc(-c3cccc(NC(=O)CC(C)C)c3)nc2c1	1	0.53
CC1CCCN(C(=O)Cc2c(C(=O)O)[nH]c3ccccc23)C1 (stereo not drawn)	1	0.66
CC(C)CCNC(=O)c1ccc2c(c1)N(Cc1ccc(F)cc1Cl)C(=O)CS2	1.3	4.2

The list goes on.
SMILES	CBX7 inh	CBX7 inh z-score
O=C(NCC1CCCO1)c1nnc(Cc2ccc(Cl)cc2)o1 (stereo not drawn)	1	0.18
CC(C)CNC(=O)c1cc(-c2cccc(Cl)c2)on1	1.2	1.5
CC1CCC(NC(=O)C2(C)CCC(=O)N2CCc2ccccc2)CC1 (stereo not drawn)	1.1	1.3
O=C(NCCc1ccccc1Cl)c1ccc(Cn2c(=O)[nH]c3ccccc3c2=O)cc1	1.1	0.16
Cc1ccc(C(=O)Nc2c(-c3ccccc3)nc3ccccn23)cc1C	0.99	-0.21
Cc1ccc(NC(=O)CNC(=O)c2cc3ccccc3o2)cc1	1	0.91
Nc1cc(C(F)(F)F)ccc1Oc1ccccc1Cc1ccccc1	1.2	5.4
Cc1cc(OC(C)c2nc(-c3nonc3N)no2)ccc1Cl (stereo not drawn)	1.1	2.2
Cc1ccc(Cn2nc(C)c3cc(C)ccc32)cc1	1	1.3
CCOC(=O)C1CCN(S(=O)(=O)c2ccc3c(c2)C(=O)NCC(=O)N3)CC1	1	0.25
CC(CC(=O)NCc1ccc2c(c1)OCO2)CC1=NS(=O)(=O)c2ccccc2N1 (stereo not drawn)	1.2	1.9
COc1ccc(C2C(=O)N(C3CCCCC3)CC(=O)N2C2CC2)cc1OC (stereo not drawn)	1	0.043
O=C(Nc1ccc(Cc2ccncc2)cc1)C1=CCN(S(=O)(=O)c2ccc(F)cc2)CC1	0.93	-1.3
CCN(c1cccc(C)c1)S(=O)(=O)c1ccc2c(c1)CCN2C(=O)CCC(=O)O	0.93	-1.1

From PubChem BioAssay

Some of the compounds tested; the hit share may differ from the screen's.
